Screening data (PubChem BioAssay)
PrP 5UTR inh: inhibition of PrP 5' UTR reporter expression. cell-based PrP 5' UTR mRNA reporter, plate reader. 0.35% of 340,000 active. AID 488862. inhibition, % (concentration not given with the values);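 active = every replicate at 50% or more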;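 note: 0 = median of the neutral control wells; tested in H4 reporter cells; numbers are from one replicate; inactives centre near -14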
RN4220 kill: S. aureus RN4220 growth inhibition. AID 1259311. 0.33% of 330,000 active. inhibition, % (concentration not given with the values). OD600, 16 h;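 active = z-score of -3 or lower and OD600 up to 0.18 on both plates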;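 note: plate controls were untreated cells for no effect and reference antibiotic for full effect; stock transfer was 100 nL into about 80 µL; one replicate is shown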
Sa ugtP lethal: growth inhibition of S. aureus ugtP deletion strain; 0.54% of 330,000 active; growth inhibition, % (no concentration beside the values); S. aureus RN4220 ugtP deletion, OD600 growth, 16 h; some inactives read as strong as hits;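 active = z-score under -3 and OD600 up to 0.15 on both plates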;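 note: plate controls were untreated wells for no effect and antibiotic for full effect; wells of about 80 µL received 100 nL stock; the first replicate is given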
Autofluor counter: flagged as autofluorescent in microsphere protease counterscreen; AID 624483; fluorescence intensity (test concentration not listed); 3.1% of 360,000 active; compound autofluorescence counterscreen, microsphere flow cytometry; active compounds read high;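 active = at least 3 SD above the mean of all compounds, about 16000 in these data; inconclusive = too few beads counted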;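 note: 100 nL of 1 mM stock went into each well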
BJeLR viability: BJeLR cell viability loss; BJeLR (HRASV12) viability, CellTiter-Glo ATP luminescence, 48 h; reference of the scale not given here; 0.17% of 300,000 active; AID 1554; inhibition, % (concentration not given with the values);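 active = replicate mean above 50%; inconclusive = above 50% but judged a plate artefact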;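 note: 50 nL library stock added to about 25 µL; numbers are from one replicate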
Mtb hypoxia inh: inhibitors of hypoxia-regulated fluorescent reporter in Mycobacterium tuberculosis; fluorescence inhibition, % (test concentration not listed); 0.1% of 300,000 active; AID 1159583; M. tuberculosis hypoxia-regulated fluorescent reporter, fluorescence;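 active = 35 to 45% if threefold the growth effect, above 45% if 1.5-fold the growth effect; inactive = the rest, general growth blockers included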;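 note: wells of about 50 µL received 100 nL stock; 0% = vehicle wells and 100% = reference inhibitor wells; whole bacteria with a GFP reporter of the hypoxia response; strong numbers were not always called active; many hits fall short of the cut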
Mtb hypoxia inh growth: also measured in Mtb hypoxia inh; calls as there; growth inhibition, %; measured here: M. tuberculosis growth (absorbance);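 0% = vehicle and 100% = reference antibiotic; read after six days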
Numbers without * were called inactive; ? = inconclusive; nt = no result given; & = joins results of further samples.

SMILES | PrP 5UTR inh | RN4220 kill | Sa ugtP lethal | Autofluor counter | BJeLR viability | Mtb hypoxia inh | Mtb hypoxia inh growth
CC(C)NC(=O)C(c1ccc(F)cc1)N(C(=O)CCC(=O)Nc1ccccn1)c1ccccc1F (configuration not stated) | -28.0 | 4.8 | 3.1 | 6120 | -13.0 | -10.8 | 3.1
COc1ccc(CNC(=O)CSc2nnc(NC(=O)c3ccccc3F)s2)cc1 | -24.9 | -3.8 | 9.8 | 5445 | -2.3 | -13.2 | -6.3
O=S(=O)(NCc1cc(-c2ccccc2)no1)c1ccccc1 | -18.7 | 2.2 | -3.6 | 4626 | 9.3 | -3.1 | 12.9
COCCCNC(=O)c1c(N)n(/N=C/c2cccs2)c2nc3ccccc3nc12 | -1.4 | nt | nt | 3390 | -3.9 | nt | nt
COc1cc(CCCN2CCNC[C@@H]2Cc2ccccc2)cc(OC)c1OC | -6.7 | -16.5 | -11.4 | 4154 | -5.7 | 4.0 | 8.9
COCC(=O)Nc1cccc(Br)c1 | -6.4 | 4.5 | 0.4 | 4278 | -3.5 | 3.5 | 4.7
C=C1CCN([C@@H](C)C(=O)OCc2cccc(C)c2)S(=O)(=O)c2ccccc21 | 2.0 | nt | nt | 3443 | 8.9 | nt | nt
COCCn1c(SCC(=O)NC(=O)NC2CCCCC2)nc2ccccc2c1=O | -4.6 | 1.3 | -4.1 | 3939 | nt | -15.3 | -7.2
CCc1ccccc1N(CC(=O)Nc1cccc(N(C)S(C)(=O)=O)c1)S(C)(=O)=O | -14.9 | 2.9 | 5.8 | 5212 | -12.4 | 3.8 | -2.0
CCc1nnc(N2CCN(c3ncnc4c3oc3ccccc34)CC2)s1 | -5.7 | 5.3 | -3.6 | 4734 | -16.6 | -79.9 | -10.0
COc1ccc(N2CC(C(=O)NCCc3c[nH]c4ccccc34)CC2=O)cc1 (configuration not stated) | -0.7 | 3.4 | 0.9 | 3578 | 3.3 | 1.7 | 12.8
CCCCC(=O)Nc1ccc(C(=O)Nc2ccc(S(=O)(=O)Nc3nccc(C)n3)cc2)cc1 | -15.0 | -4.1 | -6.2 | 2840 | -6.7 | 0.9 | 6.6
Cc1ccc(/C=C/C(=O)O)cc1S(=O)(=O)N1CCc2ccccc21 | -14.1 | 9.6 | -1.2 | 3860 | 6.0 | -1.5 | -3.0
COc1ccc(N2C(=O)NC(=O)/C(=C/c3ccc(N4CCOCC4)cc3)C2=O)cc1 | nt | 7.0 | 1.3 | nt | 1.6 | -0.1 | 1.5
CC(NC(=O)c1cccs1)c1ccc(Cl)cc1 (configuration not stated) | -18.1 | 1.0 | 5.6 | 4363 | -10.2 | nt | nt
CCOC(=O)c1c(N)n(CCCOC(=O)c2ccco2)c2nc3ccccc3nc12 | -31.1 | 6.3 | 10.3 | 5104 | 20.9 | nt | nt
CCOC(=O)C1CCCN(C(=O)c2cc(CN3C(=O)c4ccccc4C3=O)ccc2OC)C1 (configuration not stated) | -3.0 | -2.8 | -4.2 | ? | -3.9 | -4.7 | -1.5
Cc1cc(O)c2c(c1)C(=O)c1cc(O)cc(O)c1C2=O | 38.4 | 80.3 | 69.9 | 6075 | 2.3 | 24.4 | -4.8
CC(C)NC(=S)N/N=C/c1c[nH]c2ccccc12 | -17.4 | nt | nt | 2359 | -8.8 | nt | nt
CCOC(=O)c1ccc(Nc2cc(C)nc(C)c2C(=O)OCC)cc1 | -10.8 | 6.4 | 10.9 | ? | 0.7 | -0.2 | 11.2
N#CC1=C2C=Cc3ccccc3N2CCCC1=O | -12.8 | 3.2 | -1.6 | 3889 | -0.1 | nt | nt
CC1(C)CC(=O)C2=C(C1)NC(=O)CC2c1ccc(F)cc1 (configuration not stated) | -15.5 | 0.5 | 3.4 | 2899 | 3.5 | nt | nt
COc1cccc(OCc2cc(C(=O)NCC3CCCCC3)no2)c1 | -38.1 | -2.3 | 5.2 | 5213 | 0.6 | 2.0 | 2.0
CC(NC(=O)/C=C/c1cnc2ccccc2n1)C12CC3CC(CC(C3)C1)C2 (configuration not stated) | 3.3 | 0.1 | -12.8 | 2596 | 2.0 | -1.3 | 10.5
COc1ccccc1OCC(=O)NCC1CCCN(Cc2cnn(C)c2C)C1 (configuration not stated) | -3.5 | 5.4 | 1.4 | 4566 | -3.6 | 1.9 | 5.4
CC(C)C(NC(=O)C1CCCCC1)C(=O)NCCc1ccccc1 (configuration not stated) | -4.1 | 5.0 | -0.1 | 4983 | 2.8 | -7.8 | 3.5
COc1ccc(CCNC(=O)Cn2c(=O)n(-c3ccc(F)cc3F)c(=O)c3sccc32)cc1OC | -12.8 | 2.4 | 7.3 | 4264 | 2.4 | -11.4 | 8.5
CC(=O)c1ccc(OCCCC(=O)NCc2nnc3ccccn23)cc1 | 0.4 | 2.1 | 4.4 | 5694 | nt | 4.0 | -0.5
C=CCSCC1Nc2cc(Cl)c(S(N)(=O)=O)cc2S(=O)(=O)N1 (configuration not stated) | -14.2 | 8.8 | 4.4 | 5052 | nt | 4.6 | 4.9
O=C(CN1C(=O)C2C3C=CC(C3)C2C1=O)NCc1ccc2c(c1)OCO2 (configuration not stated) | -9.9 | -2.2 | 4.9 | 3460 | -2.8 | nt | nt
O=C(COC(=O)Cc1n[nH]c(=O)c2ccccc12)NNC(=O)c1ccccc1 | -10.0 | 3.2 | 5.3 | 4162 | -2.1 | 6.3 | -1.0
COc1cccc(NC(=O)CCC(=O)Nc2ccc3nc(N4CCOCC4)cc(C)c3c2)c1 | -84.1 | 11.2 | 1.2 | 5271 | -14.8 | -4.8 | 5.1
O=C(NC1CCCC1)C1CCC(=O)N1C1CCCCC1 (configuration not stated) | 5.9 | 3.6 | 3.5 | 3913 | -0.9 | -6.2 | -0.6
CSc1ccccc1C(=O)C1CCCN(Cc2ccn[nH]2)C1 (configuration not stated) | -3.3 | 2.1 | 5.8 | 2448 | 0.5 | -19.7 | -2.4
C=CCn1c(-c2cccc(OCC)c2)n[nH]c1=S | 2.9 | 1.2 | 15.9 | 1945 | 5.7 | 10.4 | 5.9
COc1ccc(-c2cc(C(F)(F)F)nc(SCCC(=O)NCc3ccccc3)n2)cc1 | -22.8 | 3.1 | -6.1 | 2424 | -3.6 | 10.5 | 5.5
CCCCN1CC(COCc2ccccc2)Oc2ccccc2S1(=O)=O (configuration not stated) | 2.7 | 4.7 | 20.4 | 4181 | nt | -5.3 | 0.1
CC1CCCN(C(=O)c2cc(-c3ccco3)nc3ccccc23)C1 (configuration not stated) | 4.5 | 2.3 | -2.2 | 5668 | nt | 3.5 | 8.1
CC1COc2ccccc2N1C(=O)c1ccc(Cl)cc1 (configuration not stated) | -20.5 | 0.1 | 11.0 | 3620 | -2.2 | 21.6 | 16.1
O=C(NCc1csc(-c2cccs2)n1)C1CCC1 | -42.9 | 2.8 | 8.5 | 6166 | -5.4 | 2.5 | 6.9
CCCOc1ccc(C(=O)N(CC(C)C)c2c(N)n(Cc3ccccc3)c(=O)[nH]c2=O)cc1 | 4.9 | -0.6 | -0.2 | ? | 5.6 | -10.2 | -8.9
Cc1cc(NC(=O)/C=C/c2cccc(Cl)c2)n(-c2nc3ccccc3[nH]2)n1 | -3.6 | nt | nt | 6910 | -2.1 | nt | nt
O=C(NCCN1CCCCC1)c1c(O)c2ccccc2[nH]c1=O | -16.2 | 1.6 | 10.8 | 9205 | 1.0 | -4.0 | -0.6
CCOCCCn1c(SCC(=O)Nc2ccc(C(N)=O)cc2)nc2ccccc2c1=O | 5.5 | 3.7 | -5.7 | 4411 | 4.3 | 0.2 | 19.0
COc1ccc(CNS(=O)(=O)NCc2ccccc2)cc1 | -18.2 | 3.6 | 5.7 | 2164 | 5.5 | -6.0 | 3.2
COc1c(Cl)cc(Cl)cc1CNCCNCC(C)O (configuration not stated) | -11.0 | 5.7 | 7.9 | 11434 | -9.4 | 10.7 | 7.4
CCN(CC)c1ccc(C2C(C(=O)OCCOC)=C(C)NC3=C2C(=O)CCC3)cc1 (configuration not stated) | -10.4 | 2.8 | 2.0 | 6213 | 2.0 | 12.8 | 2.0
Cc1ccc(-n2nnnc2SCc2ccccn2)cc1C | -0.9 | 2.6 | -2.0 | 3700 | -4.5 | nt | nt
COc1ccc(S(=O)(=O)N2CCC(C(N)=O)CC2)c2ccccc12 | 4.4 | 1.2 | 0.1 | 4850 | -5.3 | nt | nt
Clc1ccc(-c2nc3ccccc3n2OCc2ccccc2)cc1 | -8.6 | -2.5 | -0.7 | 8440 | -0.1 | 9.4 | 10.0
O=S(=O)(c1ccc(NC(=S)N/N=C/c2ccc(O)c(O)c2)cc1)N1CCOCC1 | -7.3 | nt | nt | 4581 | 11.1 | nt | nt
CCCCN1C(N)=NCC1Cc1ccc(O)cc1 (configuration not stated) | nt | -1.2&8.8 | -1.6&-3.4 | nt | nt | -7.6&17.4 | 4.5&10.5
CCN(CC)C(=O)c1sc2c(c1C)c(=O)n(-c1ccc(C)c(C)c1)c(=O)n2CC(=O)NCC1CCCO1 (configuration not stated) | -17.2 | 4.7 | 0.8 | 3201 | -10.9 | -12.0 | -0.8
O=C1/C(=C\c2cccc([N+](=O)[O-])c2O)SC(=S)N1Cc1ccccc1 | -0.9 | 5.1 | -0.9 | 3740 | 31.5 | -1.2 | 16.1
Oc1ccc(-c2nc3ncccn3c2Nc2ccc3c(c2)OCO3)cc1 | -20.0 | 0.5 | 2.4 | 4770 | 0.9 | nt | nt
CN1CCN(S(=O)(=O)c2cccc(C(=O)N(C)Cc3c(F)cccc3Cl)c2)CC1 | -5.3 | 7.8 | 13.2 | 3149 | nt | -2.7 | -6.0
CC(C)CC(c1nnnn1CCc1ccccc1)N1CCC(C(N)=O)CC1 (configuration not stated) | -17.0 | 7.9 | 8.8 | 2087 | -7.8 | nt | nt
Oc1ccccc1-c1n[nH]c(=S)n1Cc1ccccc1 | -12.5 | 3.5 | 15.0 | 3449 | -6.7 | 8.7 | 5.6
COc1ccc(C(CNC(=O)CCNC(=O)c2ccccc2Cl)N2CCCC2)cc1 (configuration not stated) | -8.2 | -4.1 | -1.4 | 3878 | nt | -6.5 | 3.8
O=C(c1ccccc1)C1CCN(C(=O)c2ccc(Cl)cc2)CC1 | -1.7 | 2.8 | 2.6 | 3310 | 1.1 | 6.9 | -3.0

Filtered by structure, the compounds so far containing a furan ring, fused or not (3)
SMILES | PrP 5UTR inh | RN4220 kill | Sa ugtP lethal | Autofluor counter | BJeLR viability | Mtb hypoxia inh | Mtb hypoxia inh growth
CCc1nnc(N2CCN(c3ncnc4c3oc3ccccc34)CC2)s1 | -5.7 | 5.3 | -3.6 | 4734 | -16.6 | -79.9 | -10.0
CCOC(=O)c1c(N)n(CCCOC(=O)c2ccco2)c2nc3ccccc3nc12 | -31.1 | 6.3 | 10.3 | 5104 | 20.9 | nt | nt
CC1CCCN(C(=O)c2cc(-c3ccco3)nc3ccccc23)C1 (configuration not stated) | 4.5 | 2.3 | -2.2 | 5668 | nt | 3.5 | 8.1

The listing continues.
SMILES | PrP 5UTR inh | RN4220 kill | Sa ugtP lethal | Autofluor counter | BJeLR viability | Mtb hypoxia inh | Mtb hypoxia inh growth
O=S(=O)(Nc1ccc2c(c1)OCCO2)c1ccc2oc3ccccc3c2c1 | -12.6 | -4.7 | 38.6 | 10268 | 4.7 | 6.4 | -2.0
CCCOc1ccc(C(=O)Nc2ccc(S(=O)(=O)Nc3cc(C)nc(C)n3)cc2)cc1 | -26.2 | 0.3 | 20.4 | 3664 | -6.2 | -4.9 | 6.9
CCC(=O)c1ccc(OCC(=O)NC2CCN(Cc3ccccc3)CC2)cc1 | -10.0 | -1.0 | 3.9 | 3951 | nt | 10.9 | 5.8
CC(=O)c1cnc2cc(C)nn2c1C | -3.0 | 1.5 | 2.6 | 2921 | -9.9 | 1.8 | 8.0
CCc1ccc(C(=O)N2CCN(c3ccc(F)cc3)CC2)s1 | 13.7 | 2.7 | 3.7 | 11172 | -4.3 | 14.6 | 18.9
CCc1c(C(=O)Nc2ccccc2C(N)=O)csc1C | -13.3 | 1.6 | -0.2 | 5342 | -7.9 | 3.5 | 17.0
COc1cc([N+](=O)[O-])ccc1NC(=O)C1C2C=CC(C2)C1C(=O)O (configuration not stated) | -16.9 | 6.0 | 7.0 | 3342 | 2.3 | 5.9 | 9.5
CCCCOC(=O)CSc1nc(N)c(C#N)c(-c2ccc(OCC)cc2)c1C#N | -10.5 | 2.3 | 2.3 | 3272 | 5.1 | 18.2 | 7.2
